Compound activity (PubChem BioAssay)
PINK1 modulator: modulators of PINK1 expression; PINK1 immunofluorescence, high-content cytometry, 24 h; Potency, µM (doses to about 76.6 µM), for inactives: top-dose activation (PINK1 increase), usual class: activators; actives 0.2% (n = 410,000); active = well fitted activation curve with a large enough effect; inconclusive = small, poorly fitted or top-dose-only effect; inactive = flat fitted curve, though single readings scatter; cell line not stated here;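 further: potency means the concentration at half of the fitted maximal effect; % of control where 0% means no effect; nearly all actives have a fitted effect of over 65% in size; a mitochondrial uncoupler was the plate control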
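Stable cell line treated 24 h with compounds at 5 concentrations (CCCP controls), then fixed and immunostained for PINK1 plus nuclear and cell stains; PINK1 immunofluorescence quantified by laser-scanning microplate cytometry.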
TRPML1 agonist: human mucolipin-1 channel agonism. Q9GZU1. TRPML1-expressing cells, Ca2+ dye fluorescence, FDSS; host cell line not named in the record; reference of the full effect not given here. activation, % (test concentration not listed). actives 0.12% (n = 410,000); in the data active = activation above about 50%; inconclusive = about 30% to 50%; inactive = below about 30%; further: 0% is about no effect; the text of the record puts the active cut at 80%
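Tet-induced TRPML1-DL cells, 1,500 per well, cultured overnight, were loaded with a no-wash Ca2+ dye for 45–90 min. Calcium fluorescence was recorded on the FDSS for 110 s after compound addition, before the EC80 agonist (4 uM 54-4) was added.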
D2 potentiator: potentiates the human D2 dopamine receptor allosterically. actives 0.23% (n = 360,000). potentiation, % (concentration not given with the values). DiscoveRx D2 beta-arrestin cells, luminescence, 90 min; 100% = 57 uM dopamine signal. P14416; active = potentiation of 50% or more; inconclusive = 30% to 50%; inactive = 30% or less;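 further: compound concentration not given in the record; tested on top of an EC20 dose of dopamine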
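D2 cells co-treated with compound plus 50 nM dopamine (EC20) for 90 min at 37 deg C to detect potentiation. Beta-arrestin recruitment was read as enzyme-fragment luminescence after 1 h at ambient temperature. Full response was set by 57 uM dopamine.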
CtBP-E1A blk: CtBP/E1A binding inhibition; actives 0.49% (n = 340,000); AlphaScreen GST-E1A/His-CtBP binding, 1536-well; stronger effect = lower value; control for the full effect not named in the record; activity change, % (concentration not given with the values); in the data active means activity change below about -65%; inconclusive means about -30% to -65%; inactive means above about -30%; further: on the % scale 0 is the no-effect control and ±100 the full control effect
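GST-E1A and His-tagged CtBP (125 nM each as 5X stock) were preincubated with pin-transferred compound for 2 h at 37 °C in the dark, then glutathione donor and nickel acceptor beads were added for 1 h before AlphaScreen reading.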
D2 ag: activates the human D2 dopamine receptor; P14416; DiscoveRx PathHunter D2 beta-arrestin, luminescence, 90 min; 100% = 57 uM dopamine signal; activation, % (concentration not given with the values); actives 0.084% (n = 360,000); in the data active = activation above about 40%; inconclusive = about 15% to 40%; inactive = below about 15%; further: compound concentration not given in the record; the text of the record calls up to 30% inactive
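DiscoveRx PathHunter D2 beta-arrestin cells (2,100/well) attached overnight, then compound-stimulated 90 min at 37 C in HBSS/10 mM HEPES/0.1% Tween-20 buffer; beta-galactosidase complementation read by luminescence after 1 h at ambient temperature. Dopamine 57 uM final (EC100) as control.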
Six1-Eya2 inh: blocks human Six1 binding to Eya2. actives 0.56% (n = 360,000). AlphaScreen GST-Six1/His-Eya2 binding, biochemical; stronger effect = lower value; control for the full effect not named in the record. Q15475+O00167. activity change, % (test concentration not listed); in the data active = activity change below about -65%; inconclusive = about -30% to -65%; inactive = above about -30%; further: on the % scale 0 is the no-effect control and ±100 the full control effect; compound concentration not given in the record
Target sequence (O00167 whole entry, looked up): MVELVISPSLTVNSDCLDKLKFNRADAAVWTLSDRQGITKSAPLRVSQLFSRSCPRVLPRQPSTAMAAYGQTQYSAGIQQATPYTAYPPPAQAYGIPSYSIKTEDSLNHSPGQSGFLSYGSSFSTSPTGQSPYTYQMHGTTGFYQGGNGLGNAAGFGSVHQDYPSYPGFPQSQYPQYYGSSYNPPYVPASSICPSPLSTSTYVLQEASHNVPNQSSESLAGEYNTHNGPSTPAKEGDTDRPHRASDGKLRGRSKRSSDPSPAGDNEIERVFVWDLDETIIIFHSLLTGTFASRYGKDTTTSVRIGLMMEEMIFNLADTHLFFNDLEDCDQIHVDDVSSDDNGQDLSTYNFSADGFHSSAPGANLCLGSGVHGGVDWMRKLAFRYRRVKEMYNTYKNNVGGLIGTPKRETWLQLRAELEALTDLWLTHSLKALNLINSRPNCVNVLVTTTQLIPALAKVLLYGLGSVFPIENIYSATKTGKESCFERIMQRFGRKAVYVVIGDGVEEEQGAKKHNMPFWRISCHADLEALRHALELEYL
Target sequence (Q15475 whole entry, looked up): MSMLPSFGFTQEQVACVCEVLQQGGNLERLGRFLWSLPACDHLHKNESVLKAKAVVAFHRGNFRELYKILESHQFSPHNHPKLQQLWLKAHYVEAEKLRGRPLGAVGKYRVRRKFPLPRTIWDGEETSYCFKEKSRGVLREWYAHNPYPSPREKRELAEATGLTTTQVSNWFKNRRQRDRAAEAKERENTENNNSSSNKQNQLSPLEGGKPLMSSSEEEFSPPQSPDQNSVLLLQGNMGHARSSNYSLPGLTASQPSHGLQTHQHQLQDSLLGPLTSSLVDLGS
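Homogeneous AlphaScreen proximity assay pairing GST-Six1 with His-tagged Eya2 (added as 5X mix: 250 nM and 500 nM) in 50 mM Tris pH 8.0, 300 mM NaCl, 1 mM TCEP. Glutathione donor and nickel acceptor beads; 1 h, 37 °C, dark.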
Active calls of the source: *; ? = inconclusive; . = no result given; & = joins results of further samples; [ ] = another dose, or the depositor's remark.

Values in the order – D2 ag, TRPML1 agonist, D2 potentiator, PINK1 modulator, CtBP-E1A blk, Six1-Eya2 inh
- COC(=O)N/N=C1/C/C(=N\NC(=O)OC)c2ccccc21
 : 3.1, -0.6, -4.9, 0.6%, ?, ?
- CCOC(=O)C1CCN(C(C(=O)NC2CCCCC2)c2ccc(OC)cc2)CC1 (configuration not stated)
 : -3.7, -1.2, -4.1, -1.8%, 5.5, -1.2
- Nc1nccc(-c2ccc(-n3cccc3)cc2)n1
 : -0.7, -0.2, -7.6, 0.2%, 0.8, -2.0
- Oc1ccccc1N=Cc1sc2ccccc2c1Cl
 : -2.3, -0.1, -8.8, 2.6%, 0.9, -6.5
- COc1ccc(CS(=O)/C(Cl)=C(/Cl)C(=O)Nc2ccc(OC)nc2)cc1 (configuration not stated)
 : -6.6, 0.6, -30.8, -1.7%, -5.3, -26.2
- CS/C(N)=N/N=C/c1cc(Br)cc(Br)c1O
 : -8.4, -0.1, -21.3, 4.2%, ., -18.9
- O=C(NCCS(=O)(=O)N1CCN(c2ccccc2)CC1)c1cccs1
 : -3.2, 2.5, -3.8, 11.5%, -8.6, 6.3
- CCn1c(C)nc2cc(C(=O)NNS(=O)(=O)c3ccccc3F)ccc21
 : 2.3, 0.4, -5.8, -2.7%, 3.0, 6.2
- Cc1ccc(S(=O)(=O)NCCc2ccncc2)cc1
 : -0.4, -0.9, -2.6, 2.5%[38.3 µM], 4.9, -2.6
- CCCN(CC(=O)Nc1ccccc1C)C(=O)c1cn2ccccc2n1
 : 3.7, 0.0, -5.4, 1.4%, -14.4, 7.1
- COc1ccc(-n2nnnc2-c2ccc(S(C)(=O)=O)cc2Cl)cc1
 : 4.5, 1.0, -5.9, 0.3%, ., 8.6
- CCOC(=O)c1c(N2C(=O)C=CC2=O)sc(C)c1C
 : -1.2, 0.0, -16.2, ., -12.0, -12.8
- COCC1CCCCN1Cc1cn(-c2ccccc2)nc1-c1ccc2c(c1)OCO2 (configuration not stated)
 : -1.8, 0.1, -11.4, 3.8%, -9.3, -11.4
- CCOC(=O)c1c(NC(C)=O)sc2c(OC)c(Br)ccc12
 : 0.0, -0.4, 2.0, 12.5%[38.3 µM], 56.6, 0.0
- Cc1sc2ncn(CC(=O)NCCCC(=O)N3CCN(c4ccccn4)CC3)c(=O)c2c1C
 : -0.4, 2.0, -22.9, -1.1%, 3.8, 1.6
- CC(=O)c1cnc2nc(SCc3ccc(C)cc3)nn2c1C
 : 3.2, 0.0, -4.6, -0.8%, 0.7, -5.1
- COc1ccccc1CC(=O)NC1CC1
 : 0.9, 0.6, -1.3, -0.4%, -2.9, -8.9
- CN(CCc1ccccc1)C(C(=O)Nc1ccc2c(c1)OCCO2)C1CC1 (configuration not stated)
 : -5.2, -0.5, -9.0, -0.2%, -13.0, 31.3
- Cc1cccc(C(=O)OCC(=O)N2c3ccccc3CC2C)c1C (configuration not stated)
 : -0.9, 1.0, -9.4, 0.9%, 5.8, 14.0
- COc1ccc(C(C(=O)NC2CCCC2)N(C(=O)c2ccoc2C)c2ccc(C)cc2)cc1 (configuration not stated)
 : -1.2, 1.8, -16.7, ?, -22.4, -1.4
- Cc1cccn2c(=O)nc(SCC(=O)N3CCC(Cc4ccccc4)CC3)nc12
 : -2.8, 1.8, -38.0, -7.2%, -6.6, -18.9
- COc1ccc(Cl)cc1NC(=O)CN1C(=O)C(=O)N(C2CCCC2)C1=O
 : -5.2, -0.2, -9.0, 1.9%, -1.2, -3.7
- Cc1ccc(F)cc1C(=O)N1CCCC(c2cc(C(=O)Nc3ccccc3Cl)no2)C1 (configuration not stated)
 : -3.0, -0.1, -0.4, 0.9%, 3.6, -3.1
- CCc1ccc(S(=O)(=O)N/N=C(/C)c2ccncc2)cc1
 : -3.0, -0.6, 0.5, 0.6%, -4.4, -2.1
- CN(C1CCCCC1)S(=O)(=O)c1ccc(S(=O)(=O)N2CCN(CCC#N)CC2)cc1
 : -2.8, 2.1, -2.0, -3.7%, 2.3, 0.3
- CS(=O)(=O)N(CC(=O)Nc1ccccc1C(=O)N1CCOCC1)c1cccc(F)c1
 : -3.4, -0.2, 2.9, 1.7%, 4.3, 0.2
- CC(C)(C)c1ccc(C(CC(=O)O)NC(=O)CCCc2ccccc2)cc1 (configuration not stated)
 : 1.8, 0.0, 3.0, -2.0%, 10.2, -0.2
- COc1ccc(OCC(=O)Nc2ccc3c(c2)nc(CN2CCN(C(C)=O)CC2)n3C)cc1
 : -3.4, -0.4, 5.4, -2.6%, 4.7, 2.4
- COc1ccc(NC(=O)C2(C)Cc3c(-c4ccc(C(N)=O)cc4)ccnc3O2)cn1 (configuration not stated)
 : -4.7, -0.7, -12.5, 7.0%, -14.6, -4.6
- COc1ccccc1CN1CC(C(=O)NCCc2ccc(Cl)cc2)CC1=O (configuration not stated)
 : -5.1, -0.6, -24.7, 0.6%, -2.1, -0.9
- Cc1ccc(S(=O)(=O)NNC(=O)Nc2ccc(Cl)cc2)cc1
 : -4.7, 0.6, -12.5, 0.9%, 0.0, 0.0
- COc1cccc(NC(=O)CN(C)S(=O)(=O)c2ccc3[nH]c(=O)oc3c2)c1
 : -0.7, -0.1, -6.9, -1.7%, -18.4, -5.5
- COc1ccc(OC)c(C(=O)NC(CC(N)=O)c2ccc(NCCN3CCCC3)c([N+](=O)[O-])c2)c1 (configuration not stated)
 : -1.0, -0.1, -5.0, 1.1%, 1.6, 0.6
- Nc1cccnc1S(=O)(=O)c1ccccc1
 : 9.3, -0.5, -5.1, 0.8%, 2.8, 5.0
- CN(Cc1ccccc1)C(=S)Nc1ccc2nc3n(c(=O)c2c1)CCCCC3
 : 4.9, -0.7, -6.1, 1.1%, -0.1, -9.9
- COC(=O)c1ccc(/C=C/C(=O)OCC(=O)Nc2ncc(Cl)cc2Cl)cc1
 : 8.6, 4.5, -0.9, -0.8%, 1.2, -0.8
- OC[C@@H]1CN(Cc2ccccc2)C[C@H](n2cnc3c(NC4CC4)ncnc32)O1
 : -1.2, -0.2, -9.3, -0.6%, -14.6, 8.4
- Cc1ccc(O)c(C(=O)CC(=O)c2ccccc2Cl)c1
 : 4.3, -0.1, 2.2, ?, -13.2, -2.3
- COc1ccc(N(CC(=O)NC2CC3CCC2C3)S(=O)(=O)c2ccc(C)cc2)cc1Cl (configuration not stated)
 : 2.5, -0.4, -16.1, 3.2%, 1.1, 3.0
- CCOC(=O)C1=C(C)N=c2s/c(=C\C(=O)OC)c(=O)n2C1c1ccc(OC)cc1 (configuration not stated)
 : -2.4, -0.5, -16.7, -0.3%, -5.0, ?
- COC(=O)C(C)(C)c1cccnc1C#N
 : -1.1, -0.2, -5.6, 0.0%, ?, ?
- COc1ccc(-n2c(SCC(=O)N3CCOCC3)nc(O)c(Cc3ccccc3)c2=O)cc1
 : -2.6, -0.8, -9.6, 0.8%, 13.9, -0.4
- CC(C)[C@H](NC(=O)N1CCn2c1nc1ccccc12)C(=O)N1CCCCC1
 : 7.1, 0.1, -29.0, 0.3%, 5.7, 5.9
- O=[N+]([O-])c1ccc(Nc2ccccc2)nc1
 : -5.5, 2.1, -21.1, -0.8%, -9.6, -3.8
- CCOC(=O)C1(Cc2ccccc2C(F)(F)F)CCN(C2CCCC2)CC1
 : -1.7, 0.5, -12.1, 0.7%, -0.5, 1.9
- O=C(Nc1nc2c(s1)CCc1ccccc1-2)c1ccco1
 : 2.3, 1.9, 23.6, 16.3%, -0.4, -4.9
- CCCCCn1nc(C)c(/C=N\NC(=O)c2cc(C)oc2C)c1C
 : -0.2, 0.4, -8.1, -2.2%[38.3 µM], -7.6, -11.1
- COc1cc(-c2nnc(NC(=O)C3=COCCO3)o2)cc(OC)c1OC
 : -2.8, -0.1, -11.7, 5.5%, -9.4, -16.6
- CC(Sc1nnnn1-c1ccc(O)cc1)C(=O)NC1CCCCC1C (configuration not stated)
 : 0.7, 1.7, -25.8, 0.8%, -1.3, 5.1
- Cc1cc(Cl)ccc1Nc1ncccc1C(N)=O
 : 0.0, 0.3, -0.4, -2.1%, 5.1, -7.4
- COc1c(C)cc(C(=O)C2CCCN(C(=O)c3cc(C)n(C)n3)C2)cc1C (configuration not stated)
 : -1.5, -0.1, -7.6, 1.8%, 1.6, 1.6
- CCCNC(=O)c1ccc2c(=O)c(O)c(C)[nH]c2c1
 : -3.2, 3.1, 0.8, -0.8%, -1.9, -2.3
- CCN(CC(=O)Nc1c(F)cccc1F)C(=O)c1ccc(Cl)c(S(=O)(=O)N2CCCC2)c1
 : -1.8, 0.5, -5.4, -0.1%, -2.3, -7.5
- CCOc1ccc(NC(=O)N2CCC(c3ccc(C)cc3)C2)cc1 (configuration not stated)
 : 0.9, 0.9&-0.4, -8.2, 5.4%, -0.5, 1.4
- COc1ccc(C2C(C#N)=C(N)OC(C(C)(C)C)=C2C#N)cc1OC (configuration not stated)
 : 1.6, -0.9, 10.3, 0.3%, -4.1, -7.5
- COc1ccc(NS(=O)(=O)c2cc(OC)ccc2OC)cc1
 : -1.2, -0.4, -1.2, 8.4%, 8.3, 8.9
- COc1ccc(-n2c(=S)[nH]c3cc(C(=O)NCCCN4CCOCC4)ccc3c2=O)cc1OC
 : -6.2, -1.0, -9.1, 4.2%, -0.7, -21.6
- O=S(=O)(NC1CCCCC1NCc1ccco1)c1ccccc1 (configuration not stated)
 : 4.0, -0.4, 7.1, ., 4.8, 0.7
- Cc1ccc(NC(=O)CCC(=O)NNC(=O)c2ccco2)cc1C
 : -0.6, -0.2, -9.5, ?, 5.1, 2.2
- CCOc1ccc(N2CC(C(=O)Nc3ccc(OC)c(S(=O)(=O)N4CCCCC4)c3)CC2=O)cc1 (configuration not stated)
 : -4.3, 0.0, -4.6, 3.0%, 2.9, -7.6

Further entries:
Values in the order – D2 ag, TRPML1 agonist, D2 potentiator, PINK1 modulator, CtBP-E1A blk, Six1-Eya2 inh
- CCCCN(C)C(=O)c1cc2cc3ccc(OC)cc3nc2o1
 : -1.0, 0.4, -7.5, 3.7%, -1.6, -2.9
- CCCCn1c(SCC(=O)Nc2nnc(C)s2)nnc1-c1ccncc1
 : 2.1, 1.5, -6.7, -1.5%, -0.8, 4.3
- COC(=O)CC1=C(C(=O)OC)[C@@H](c2ccccc2[N+](=O)[O-])C(C#N)=C(N)O1
 : 2.3, -0.3, 2.4, 0.1%, 1.4, -14.4
- COc1ccccc1NS(=O)(=O)c1cccc(C(=O)NCC(c2cccs2)N2CCOCC2)c1 (configuration not stated)
 : 1.7, 1.7, -1.5, 0.9%, 0.7, 5.6
- Cc1nc(Nc2ccccc2)c2oc3ccc(Cl)cc3c2n1
 : 2.7, 3.1, -8.9, 3.6%, -5.0, -8.0
- O[C@H]1COC2C1OC[C@@H]2O (some centres not stated)
 : -2.1, 0.6, -4.8, -0.1%, 3.3, 4.2
- COc1ccc(-c2nnsc2N2C(=O)c3ccccc3C2=O)cc1
 : -1.7, -0.5, -1.6, 0.8%, 4.4, 4.2
- COc1ccc(CCNC(=O)C2CCN(S(=O)(=O)N3CCOCC3)CC2)cc1OC
 : 0.0, 0.2, 3.9, -1.0%[38.3 µM], 3.3, -0.2
- COc1ccc2nc(C)cc(SCC(=O)N/N=C/c3cccc4ccccc34)c2c1
 : 0.0, 3.4, -2.9, -3.5%[38.3 µM], -3.0, -2.1
- Cc1cc(C(=O)CN2C(=O)NC(C)(c3cc(F)ccc3F)C2=O)c(C)n1C1CC1 (configuration not stated)
 : 3.6, 0.8, -0.7, 2.4%, -11.0, -0.5
